Screens (PubChem)
VDR inhibitor: blocks the human vitamin D receptor; Potency, µM, inactives show max response, negative = inhibition, hits mostly inhibitors; hit rate 0.93% among 400,000; VDR-SRC2-3 peptide fluorescence polarization, 2 h; AID 504847; P11473; active = well fitted inhibition curve with a large enough effect; inconclusive = small, poorly fitted or top-dose-only effect, or another doubt; inactive = no such curve, though single readings can be large or run the other way; also: series mostly up to about 120 µM
Target sequence (P11473 whole entry, looked up): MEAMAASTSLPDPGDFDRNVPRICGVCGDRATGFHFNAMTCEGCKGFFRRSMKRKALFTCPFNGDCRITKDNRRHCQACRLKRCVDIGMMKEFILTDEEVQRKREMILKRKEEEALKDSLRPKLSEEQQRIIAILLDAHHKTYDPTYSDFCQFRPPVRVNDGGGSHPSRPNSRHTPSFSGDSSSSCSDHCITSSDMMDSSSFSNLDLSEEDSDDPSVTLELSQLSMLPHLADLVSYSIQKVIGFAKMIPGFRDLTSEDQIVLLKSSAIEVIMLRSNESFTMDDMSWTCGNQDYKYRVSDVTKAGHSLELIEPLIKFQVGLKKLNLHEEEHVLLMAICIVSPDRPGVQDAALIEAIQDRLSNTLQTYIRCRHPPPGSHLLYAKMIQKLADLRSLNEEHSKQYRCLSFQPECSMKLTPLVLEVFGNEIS
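Fluorescence polarization assay measuring small-molecule disruption of VDR binding to the coregulator peptide SRC2-3. Compounds were pin-transferred (23 nl) into the reagent mix and incubated 2 h at room temperature before reading.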
Active calls of the source: *; ? = inconclusive; & = joins results of further samples. % is scaled to controls: 0 for no effect and ±100 for the full control effect; potency is read from the fitted curve at half-maximal effect. This is a subset (hit frequency here may not be typical).

smiles	VDR inhibitor
O=C(COc1cccc(C(F)(F)F)c1)NCC(c1ccco1)N1CCCC1 (centres undefined)	-19.4%
Cc1ccccc1-c1cc(C(=O)Nc2nc3c(s2)CCCC3)c2ccccc2n1	8.9%
Cc1cccc(NC(=O)c2ccc3c(c2)CCN3S(C)(=O)=O)c1C	2.1%
CCN(CC)P(=O)(C(NC(=O)OC)C(F)(F)C(F)(F)C(F)(F)C(F)F)N(CC)CC (centres undefined)	-9.1%
COc1ccc(/C=C/C(=O)C2CC2)cc1COc1cccc(C)c1C	?
CN(C(=O)CSc1nc(O)cc(=O)n1-c1ccccc1F)c1ccccc1	10.4%
CCN(CC(=O)NC(=O)NCc1ccco1)Cc1nc2ccccc2c(=O)[nH]1	-25.7%
O=C(CNC(=O)N1CC(=O)Nc2ccccc21)Nc1ccc(Cl)cc1	0.1%
O=C1CC(c2ccccc2)NN1 (centres undefined)	0.3%
CCOc1cccc(C2C(C(=O)c3ccco3)=C(O)C(=O)N2Cc2ccncc2)c1 (centres undefined)	-12.0%
O=C(Nc1c2c(nn1-c1ccc(Cl)cc1)CS(=O)(=O)C2)c1ccccc1F	3.6%
O=C(CSc1ccccc1)Nc1nnc(/C=C/c2ccccc2)s1	-12.5%
COC(=O)c1nn(-c2ccccc2)c(Cl)c1/C=N/OCc1c(Cl)cccc1Cl	6.5%
O=C(CNC(=O)c1ccccc1Br)N/N=C/c1ccccc1O	-6.0%
O=C(NCc1ccc(F)cc1)C1CCCN(S(=O)(=O)c2ccc(-n3cnnn3)cc2)C1 (centres undefined)	-1.0%
Nc1nc2c(s1)CCc1c-2cnn1-c1ccccc1	20µM*
CCOc1ccc(CNC(=O)CCC(=O)N2CC(C)Sc3ccccc32)cc1 (centres undefined)	3.5%
O=C(OCC(=O)N1CCC(Cc2ccccc2)CC1)c1cc(Br)ccc1O	7.0%
Cc1ccc(Cl)cc1NC(=S)N(CCCN1CCOCC1)Cc1ccco1	-4.7%
CN(C(=O)c1cccc(NC(=O)Cc2cccc(NC(=O)C3CCN(C(=O)CCc4ccccc4)CC3)c2)c1)C1CC1	-4.8%
CCOC(=O)N1CCC(N2C(=O)c3ccccc3C2Nc2ccc(C)cc2)CC1 (centres undefined)	4.9%
COCc1cc(C)nc2c1C(=O)NC(c1ccc(F)cc1)N2Cc1ccccc1 (centres undefined)	3.6%
O=C(/C=C/c1ccccc1[N+](=O)[O-])N1CCN(c2ccc(F)cc2)CC1	18.3%
Cc1cccc(OCC(=O)Nc2cc(C)ccc2O)c1	2.5%
CCc1ccccc1N(C)C(=O)c1sc2nc3n(c(=O)c2c1C)CCCCC3	0.8%
Cn1c(C(=O)Nc2ccccc2)cc2sccc21	-2.7%
NS(=O)(=O)c1ccc(NC(=O)CSc2ccccc2)cc1	-3.3%
O=S(=O)(c1ccccc1)c1nc(-c2cccs2)oc1SCc1ccccc1Cl	4.1%
COc1cccc2cc(C(=O)NCCc3c(C)[nH]c4ccc(Br)cc34)c(=O)oc12	-8.2%
Cc1ccc2nc(SC(C)C(=O)Nc3cccc([N+](=O)[O-])c3)[nH]c2c1 (centres undefined)	12.7%
CCSC1=NC2(CCN(C(=O)NC3CCCCC3)CC2)N=C1c1ccc(C)cc1	3.8%
CCCCc1ccc(S(=O)(=O)Nc2ccc(C)c(NS(C)(=O)=O)c2)cc1	-1.8%
Cn1c(SCC(=O)N2CCOCC2)nnc1-c1ccccc1	3.1%
O=C(Nc1ccccc1F)c1nc(SCc2ccccc2F)ncc1Cl	14.1%
O=C(Cc1ccc(S(=O)(=O)N2CCCC2)s1)N1CCOCC1	-0.2%
Nc1cccc2c1CN(C1CCC(=O)NC1=O)C2=O (centres undefined)	2.6%
COC(=O)NC(=S)N1CCOCC1	-12.9%
O=C(NCc1ccccn1)NC12CC3CC(CC(C3)C1)C2	-19.7%
CCOc1ccc(NC(=O)COC(=O)CCCc2c[nH]c3ccccc23)cc1	7.6%
Cn1c(=O)c2c(nc3sccn32)n(C)c1=O	14.1%
COc1cc(SC)ccc1C(=O)N1CCN(c2ccccc2F)CC1	-3.6%
S=c1[nH]nc(Cc2ccccc2)n1Cc1ccco1	-7.6%
O=C(Nc1ccccc1F)C1CCCN1S(=O)(=O)c1ccc(Cl)cc1 (centres undefined)	7.1%
COC(=O)c1ccc(NC(=O)CSc2nccn2CCc2ccccc2)cc1	11.2%
Cc1ccc(S(=O)(=O)C2(C(=O)Nc3ccc(Br)cc3)CC2)cc1	-1.5%
COc1cccc(Nc2nnc(SCn3nnc4ccccc4c3=O)s2)c1	-5.7%
Cc1[nH]n(-c2ccc(Cl)cc2)c(=O)c1/C=N/c1nnc(-c2ccccc2)s1	5.1%
COc1ccc(NC(=O)c2sccc2SCc2cccc(C(F)(F)F)c2)cc1	-4.4%
CC(C)N(CC(N)=O)C(=O)c1sc2cc(F)ccc2c1Cl	6.2%
O=C(CCc1ccccc1)Nc1ccccc1OC(=O)c1ccccc1	7.8%
O=C(O)c1ccc(NC(=S)NC(=O)c2cccc(COc3ccccc3)c2)cc1	-13.2%
S=C1NC[C@H](Cc2ccccc2)N1CC1CCN(CCCC2CCCC2)CC1	-3.4%
Cc1nc(N2CCN(c3ccccc3)CC2)nc2c1C(=O)CCC2	12.9%
COc1ccc(Cl)cc1S(=O)(=O)N1CCCC(C(=O)NCc2ccncc2)C1 (centres undefined)	-11.8%
COc1ccc(C(C)=O)cc1CN(c1ccccc1OC)S(=O)(=O)c1cccs1	-1.2%
Cc1ccc(NC(=O)CNC(=O)c2ccco2)c(Cl)c1	-25.6%
Cc1ccc(Sc2ncccc2C(=O)O)c(C)c1	?
Cc1ccc(C(=O)N/C(=C\c2cccc([N+](=O)[O-])c2)C(=O)Nc2cccc(C(=O)O)c2)cc1	-17.0%
COc1cccc2c1cc1c(=O)n(CC(=O)N3CCN(c4cccc(C)c4)C(C)C3)nc(C)n12 (centres undefined)	4.4%
Cc1cc(C)nc(NC2=NCCN2C(=S)Nc2ccc(C)c(C)c2)n1	?

Additional results
smiles	VDR inhibitor
Cc1cccc(C)c1NC(=O)NN1C(C)CCCC1C (centres undefined)	-4.3%
CC(C)c1noc(-c2ccccc2OCC(=O)Nc2ccccc2[N+](=O)[O-])n1	-1.0%
CC(C)NC(=O)c1ccc2c(c1)N(CC(=O)N1CCCC1)C(=O)C(C)(C)O2	-9.4%
Cc1[nH]c2ccc(C(=O)OC(C)C(=O)NC3CCCCC3C)cc2c1C (centres undefined)	-7.8%
O=C(O)C/C(=C\c1cc2c(cc1Br)OCO2)c1nc2ccccc2s1	-13.0%
Cc1ccccc1S(=O)(=O)N1C[C@H]2CON(C)[C@H]2C[C@H]1c1cccc(Br)c1	-19.4%
Oc1c(Cl)cc(Oc2cc(Cl)c(O)c(CN3CCOCC3)c2)cc1CN1CCOCC1	15.8%
COC(=O)CNc1cc(S(=O)(=O)N2CCCCC2)ccc1Oc1cccc(C)c1	2.6%
Cc1cccc(Oc2ncc(-c3ccc(Cl)cc3)cn2)c1C	14.2%
Cc1ccc(-c2nnc(SCc3ccccc3)o2)cc1	5.9%
CC(C)(C)C(=O)Nc1ccc(N2CCN(c3ccc(C(F)(F)F)cn3)CC2)nc1	-0.1%
CCc1noc(-c2ccc(N(C)Cc3ccc(OC)cc3)c([N+](=O)[O-])c2)n1	0.6%
O=C(COc1ccccc1)NCCSCc1ccco1	-11.6%
O=C(Nc1cccc(Cl)c1Cl)c1ccc2c(c1)N(Cc1cccc(Cl)c1)C(=O)c1ccccc1S2=O (centres undefined)	-1.4%
CC(CC(=O)Nc1cc(S(=O)(=O)N2CCOCC2)ccc1OCC(F)(F)F)c1ccccc1 (centres undefined)	-1.5%
CCc1cccc2cc3c(N)c(C(=O)Nc4ccc(S(=O)(=O)N5CCCC5)cc4)sc3nc12	-2.6%
Cc1cc(O)cc2c1O[C@@](C)(CCC[C@@H](C)CCC[C@@H](C)CCCC(C)C)CC2	-2.6%
COCC(=O)N1CCC2(CCCN(c3ccc(-c4ccccc4)cc3)C2)CC1	50.1µM*
CCOc1ccc(CCNC(=O)CN2C(=O)CCSc3ccccc32)cc1	20.8%
Cn1ccc(-c2ccccc2)n1	12.9%
COc1ccc(-c2ccc(-c3cc(=O)oc4cc(OC)c(OC)c(OC)c34)cc2)cc1OC	-16.2%&-13.6%
O=S(=O)(c1ccc2c(c1)CCCN2)N1CCCC2CCCCC21 (centres undefined)	2.5%
Cc1cc(C)c2cccc(NC(=S)NC(=O)c3ccccc3)c2n1	3.5%
COC(=O)c1c(NC(=O)COC(=O)c2ccc(C)s2)sc2c1CCCCC2	-16.5%
CCC(CC)NC(=O)c1nn(Cc2ccccc2)c(=O)c2ccccc12	5.3%
CCN1CCN(c2ccc(S(=O)(=O)N3CCOCC3)cc2NC(=O)CCOc2ccccc2)CC1	-8.2%
O=C(NCC(c1cccnc1)N1CCN(c2ccccc2)CC1)c1ccc2c(c1)OCO2 (centres undefined)	-2.1%
CC1(C)CC(=O)c2cnc(NCc3ccco3)nc2C1	7.5%
CSCCC(NC(=O)c1ccccc1)C(=O)NCCCSc1ccccc1 (centres undefined)	0.1%
CCCCNc1c(-c2ccc(OC)c(SC3CCCCC3)c2)nc2ccc(C)cn12	-0.5%
Fc1ccc(-n2c(-c3ccc4ccccc4n3)n[nH]c2=S)cc1	-17.1%
COc1cccc([C@@H]2Oc3ccc(Br)cc3C[C@H]2OC(=O)N[C@H]2CCCc3ccccc32)c1	4.0%
CCOC(=O)N1CCC(NC(=O)c2cc(-c3ccc(OC)cc3)nc3ccccc23)CC1	-9.5%
Cn1c(=O)[nH]c(=O)c2c1nc(Br)n2CCOc1ccccc1	-11.5%
c1ccc(Cc2nnc3sc(-c4ccc5c(c4)OCO5)nn23)cc1	-19.9%
CCOc1ccc(CCNC(=O)CN2CCN(Cc3ccc(F)cc3Cl)C2=O)cc1OCC	-5.2%

Three of the compounds above, as labelled records:
canonical_smiles: CCOC(=O)N1CCC(NC(=O)c2cc(-c3ccc(OC)cc3)nc3ccccc23)CC1
  VDR inhibitor = -9.5%
canonical_smiles: Cn1c(=O)[nH]c(=O)c2c1nc(Br)n2CCOc1ccccc1
  VDR inhibitor = -11.5%
canonical_smiles: c1ccc(Cc2nnc3sc(-c4ccc5c(c4)OCO5)nn23)cc1
  VDR inhibitor = -19.9%

Going on with the list.
smiles	VDR inhibitor
Cc1ccc2cc(C#N)c(N3CCCN(S(=O)(=O)c4ccc(F)cc4)CC3)nc2c1	12.7%
CN(C(=O)CSc1nc(-c2ccccc2)cs1)C1CCS(=O)(=O)C1 (centres undefined)	11.6%
CCc1cc2c(-c3ccccc3)cc(=O)oc2cc1OC(=O)c1cccs1	-16.3%
CC1(C)OC(C)(C)/C(=C\c2ccccc2[N+](=O)[O-])C1=O	-2.5%
CCC(C)c1ccccc1NC(=O)COC(=O)C1=COCCO1 (centres undefined)	0.6%
CC(=O)c1ccc(S(=O)(=O)N2CCN(CC(=O)Nc3ccc(Cl)c([N+](=O)[O-])c3)CC2)cc1	-1.4%
Cc1ccc(C(=O)N2CCn3c4c(c5cc(C)ccc53)CCCC42)cc1 (centres undefined)	-14.5%
Cc1cc(Cl)ccc1OCCCC(=O)N1CCN(S(=O)(=O)c2ccccc2)CC1	-9.5%
Cc1cc(SCC(=O)c2ccccc2)nc(=O)[nH]1	?
CC1(c2ccccc2)CC(C)(C)N(C(=O)c2cccc(Cl)c2)c2ccccc21 (centres undefined)	-12.5%
O=c1[nH]c(CSc2nnc(Nc3ccccc3)s2)nc2ccccc12	-29.8%
COc1ccccc1NC(=O)c1ccc2c(c1)N(CC(=O)NC(C)(C)C)C(=O)C(C)(C)O2	2.4%
CC1CCCCC1NC(=O)CN1CCC(O)(c2ccc3c(c2)OCO3)CC1 (centres undefined)	2.9%
COc1ccc(N2CCN(C(=S)Nc3cc(C)ccc3C)CC2)cc1	3.7%
COc1ccccc1C1=CC(=O)C[C@H](c2ccc(Cl)cc2)C1	-0.8%
COc1ccccc1N(CC(=O)NCCSc1ccccn1)S(=O)(=O)c1ccccc1	-3.3%
COc1cc(OC)c(C(=O)N(Cc2ccco2)Cc2cccs2)cc1OC	-3.3%
Cc1ccc(NC(=O)C2CCN(C(=O)[C@@H]3Cc4ccccc4CN3)CC2)cc1	8.6%
CCN(CC(=O)Nc1ccc(NC(C)=O)cc1)C(=O)CSc1nnc(-c2ccco2)n1CC	-7.4%
O=C(Nc1ccc(Br)cc1F)c1ccncc1	-10.5%
Cc1cc(C)cc(NS(=O)(=O)c2c(C)nc3scc(C)n3c2=O)c1	-24.4%
C=CCN(c1ccccc1OC)S(=O)(=O)c1cccc(C(=O)NCc2ccco2)c1	-0.8%
Cc1ccc(CNC(=O)c2cccc(NC(=O)N3CCSc4ncccc43)c2)cc1	-8.8%
O=C(c1cc(-c2ccc(Br)cc2)n[nH]1)N1CCN(S(=O)(=O)c2ccc(Br)cc2)CC1	1.5%
COc1ccc(C(=O)N(c2ccccc2)c2nccc3ccccc23)cc1OC	-9.9%
O=C1c2ccccc2C(=O)N1C(CO)C(O)c1ccc([N+](=O)[O-])cc1 (centres undefined)	3.5%
COc1ccc(S(=O)(=O)N2CCN(CC(=O)Nc3c(C)n[nH]c3C)CC2)cc1OC	-11.4%
O=S(=O)(c1cccc2nonc12)N1CCN(c2ccccc2F)CC1	14.3%
Fc1cccc(-c2csc(-c3ccno3)n2)c1	-17.9%
